HPGD inh: blocks human HPGD enzyme activity. purified HPGD, NADH fluorescence kinetic, PGE2 substrate. AID 894. P15428. Potency, µM, inactives show at the highest dose activity change, negative = inhibition, most hits filed as inhibitors. 150,000 tested, 4.3% active; active = well fitted inhibition curve with a large enough effect (not every such curve was filed as active); inconclusive = small, poorly fitted or top-dose-only effect, or another doubt; inactive = no such curve, though single readings can be large or run the other way;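 also: top concentration of the series not given in the record; plate controls included wells without enzyme; inactives centre near -10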
Target sequence (P15428 whole entry, looked up): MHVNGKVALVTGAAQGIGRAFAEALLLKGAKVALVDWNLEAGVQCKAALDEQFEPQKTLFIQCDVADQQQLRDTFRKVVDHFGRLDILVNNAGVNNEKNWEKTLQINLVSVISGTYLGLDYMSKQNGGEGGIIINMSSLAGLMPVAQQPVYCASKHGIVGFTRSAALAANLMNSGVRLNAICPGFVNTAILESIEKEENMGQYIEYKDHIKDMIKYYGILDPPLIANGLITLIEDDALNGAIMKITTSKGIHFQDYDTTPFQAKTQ
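NADH formation kinetics: reaction with 30 uM PGE2 and 1 mM NAD+ (final), 20 nM enzyme, Tris-HCl pH 8 with Tween 20, after 15 min compound preincubation at room temperature. Fluorescence change, last versus first of five reads.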
An asterisk follows results filed as active; ? = inconclusive; & = joins results of further samples. % is scaled to controls: 0 for no effect and ±100 for the full control effect; potency is read from the fitted curve at half-maximal effect.

mol	HPGD inh
COc1cc2c(cc1OC)C(C(=O)NCCC(C)C)C1CCCCN1C2=O (stereo not given)	-28%
COc1cc(/C=N/NC(=O)Cn2c([N+](=O)[O-])cnc2C)ccc1OC(=O)N(C)C	-16%
Fc1ccc2c(c1)nnn2C1CCN(Cc2c(Cl)cccc2Cl)CC1	-2%
C[C@]12C=CC(=O)C=C1CC[C@@H]1[C@@H]2CC[C@@]2(C)[C@H]1CC[C@]2(C)O	2%
CC(=O)N1CN2CN(C(C)=O)CC(C(=O)c3ccc(Br)cc3)(C2)C1	-5%
Clc1cccc(Cl)c1	-10%
CC1C(=O)OC2O[C@]3(C)CC[C@H]4C(C)CCC1[C@]24OO3 (stereo not given in full)	-5%
COc1ccc(OC)c(C2=NOC(C(=O)N3CCC4(CC3)OCCO4)C2)c1 (stereo not given)	-14%
CCOC(=O)N1CCC(NC(=O)CCc2nc(C3=CCN(C)CC3)no2)CC1	-10%
CCCCCCCCCCCCCCCCOC[C@@H](COP(=O)([O-])OCC[N+](C)(C)C)OC(C)=O	-6%
CC12CN3CC(C)(CN(C1)C3c1cccs1)C2O (stereo not given)	-13%
CCN(CCCl)Cc1ccccc1Br	5%
CS(=N)(=O)CC[C@H](N)C(=O)O (stereo not given in full)	1%
CCn1c(O)c(/C=N/N2CCOCC2)c(=O)n(CC)c1=S	-1%
Cn1c(O)c(C(=O)c2ccccc2F)c(=O)n(C)c1=O	-1%
O=C1N=C(N2CCCCC2)SC1=C1CCCCC1	20µM*
Cc1nc2nc(SCC(=O)N3CCC4(CC3)OCCO4)nn2c(C)c1Cc1ccccc1	-17%
CCCCCCC(C)(C)c1ccc([C@@H]2C[C@H](O)CC[C@@H]2CCCO)c(O)c1	-17%
O=c1[nH]c(N2CCN(Cc3ccc4c(c3)OCO4)CC2)nc2c1CCC2	-14%
N=Cc1c(O)n(-c2ccc(C34CC5CC(CC(C5)C3)C4)cc2)c(=O)[nH]c1=O	-15%
COc1ccc(CCNCc2ccccc2F)cc1OC	-6%
COc1ccc(CCn2c(O)c(C=NCCN3CCCCC3)c(=O)[nH]c2=O)cc1OC	-9%
CCOC(=O)c1sc(/N=C/c2c(O)n(-c3cccc(C)c3)c(=O)[nH]c2=O)c(C#N)c1C	-21%
CN1CCc2c(C#N)c(Cl)nc(Cl)c2C1	?
CN(C)c1ccc(N=Nc2ccccc2)cc1	-11%
O=S(=O)(O)/C(=C\c1ccccc1)c1ccccc1 (tested in a mixture with another compound)	-1%
CCCC1=C(C(=O)OCC)C2(C(=O)Nc3ccccc32)C(C#N)=C(N)O1 (stereo not given)	-4%
COc1cc(CN2CCN(C(=O)COc3ccccc3)CC2)cc(OC)c1OC	-5%
COc1ccc(CCn2c(O)c(C=NCCCO)c(=O)[nH]c2=O)cc1OC	-10%
c1ccc2ncccc2c1	-7%
O=Cc1cn(Cc2ccc([N+](=O)[O-])cc2)c2ccccc12	-17%
c1ccc2c(c1)CCCC2	-7%
C[C@@](Br)(C(=O)O)[C@H](Br)C(=O)O	-3%
CCN(CC)C(=O)N[C@@H]1C[C@H]2c3cccc4[nH]cc(c34)C[C@@H]2N(C)C1	-6%&2%
CCC(CC)NC1CCCCC1OC (stereo not given)	3%
C=CC(N)=O	-3%&-11%
CCOC(=O)C1=C(C)OC(N)=C(C(=O)OCC)[C@@]12C(=O)N(CC(N)=O)c1ccccc12	-2%
O=C(c1ccccc1F)c1cn(Cc2ccc(F)cc2)c2ccccc12	-9%
COc1ccc(Cn2c(O)c(C=Nc3c(C)n(C)n(-c4ccccc4)c3=O)c(=O)[nH]c2=O)cc1	-13%
CC(NCc1cccc(Cl)c1Cl)C(O)c1ccccc1 (stereo not given)	-6%
CN1C(=O)C(=CN2CCN(C(=O)c3ccco3)CC2)C(=O)N(C)C1=S	-19%
O=C(CN1CCCC1=O)Nc1ccccc1	-14%
O=C(NCC(c1cccnc1)N1CCN(c2ccccc2)CC1)Oc1ccccc1 (stereo not given)	-1%
COc1cc(CC(C)N)c(OC)cc1I (stereo not given)	4%
O=C(O)C(O)(c1ccc(-c2ccccc2)cc1)c1ccc(-c2ccccc2)cc1	-14%
CCOC(=O)C1=C(N)Oc2cc(C)oc(=O)c2C12C(=O)N1c3c(cccc32)C(C)=CC1(C)C (stereo not given)	-14%
CCOC(=O)c1c(C)n(CCN2CCN(C)CC2)c2ccc(OC)cc12	-5%
C/C(=N\Nc1ccccc1)c1c(O)n(Cc2ccccc2)c(=O)[nH]c1=O	28µM*
S=C1CN=C(c2ccccc2)c2cc(Cl)ccc2N1	-14%
O=Cc1ccccc1	-9%
CC(C)CCn1c(N)c(C(=O)NCc2cccs2)c2nc3ccccc3nc21	?
Oc1cc(Cl)ccc1Cl	-29%
CC(Cc1ccccc1)NC(=O)CN1CCCC1=O (stereo not given)	-10%
CC12CCCCC1=NC(c1ccc(Br)cc1)N2O (stereo not given)	-15%
Cc1nc2ccccc2c(=O)n1-c1ccc(F)cc1	-4%
Fc1ccccc1CCNCc1ccccc1	-1%
COc1ccccc1N1CCN(Cc2ccccc2F)CC1	-6%
O=C(NCc1cccs1)c1ccc(Br)o1	20µM*
COC(=O)[C@@H]1C[C@H]1[C@@H](NP(=O)(c1ccccc1)c1ccccc1)c1ccccc1	-7%&-5%
Cc1ccnc(-n2c(-c3ccco3)nc3ccccc3c2=O)c1	-23%

The listing continues.
mol	HPGD inh
CCC(=NCCc1c[nH]c2ccccc12)c1c(O)n(C)c(=O)n(C)c1=O	-5%
Cc1cccc(-n2c(O)c(C=NCc3cccnc3)c(=O)[nH]c2=O)c1C	-14%
CCCCCSc1cc(OC)c(CCN)cc1OC	-12%
COC(=O)[C@H]1C[C@H]2CC[C@H](O)C[C@H]2N1CC1CC1	-7%
O=CC=O	-8%
Cc1ccccc1NP(=O)(Oc1ccccc1F)Oc1ccccc1F	-11%
Brc1ccc(Oc2ccc(Br)cc2Br)c(Br)c1	-4%
C=CCN1C(=O)CSc2ccc(C(=O)N3CCC4(CC3)OCCO4)cc21	-5%
Cc1ccc[n+](CC(O)Cn2c3ccccc3c3ccccc32)c1 (stereo not given)	-7%
COc1ccc(Cn2c(N)c(C(=O)NCc3ccco3)c3nc4ccccc4nc32)cc1	?
c1ccc(CCn2nnnc2CN2CCC(n3nnc4ccccc43)CC2)cc1	-3%
O=C1c2ccccc2C(=O)N1Cc1nc2ccccc2c(=O)n1-c1ccc(Br)cn1	-19%
C#CCN[C@H](C)Cc1ccccc1	-7%
N#CC(O[C@@H]1OC(COC2OC(CO)C(O)C(O)[C@@H]2O)C(O)C(O)C1O)c1ccccc1 (stereo not given in full)	-4%
C[C@H]1CCC/C=C/C2C[C@H](O)C[C@H]2[C@H](O)/C=C/C(=O)O1 (stereo not given in full)	2%
Cc1cccc(C(=O)NC(Oc2ccccc2)C(Cl)(Cl)Cl)c1 (stereo not given)	-10%
CC1(C)CC(=O)C(C=NCCN2CCN(C(=O)Cc3ccc(F)cc3)CC2)=C(O)C1	-15%
O=C(/C=C/c1ccccc1)c1c(O)n(CCc2ccccc2)c(=O)[nH]c1=O	-4%
O=C(CN1CC(c2ccccc2)CC1=O)Nc1ccccc1 (stereo not given)	-12%
O=C(Cn1nc(Cc2cccnc2)c2ccccc2c1=O)N1CCC2(CC1)OCCO2	-2%

2 neighbouring compounds already listed, for reference:
mol	HPGD inh
CC1(C)CC(=O)C(C=NCCN2CCN(C(=O)Cc3ccc(F)cc3)CC2)=C(O)C1	-15%
O=C(/C=C/c1ccccc1)c1c(O)n(CCc2ccccc2)c(=O)[nH]c1=O	-4%

Continuation.
mol	HPGD inh
Cc1ccccc1C1=NCC(=O)N(CC(=O)NCc2ccco2)c2sc3c(c21)CCCC3	40µM*
CC(C)c1ccc(N2C(=O)NC(=O)/C(=C/c3cnc(-c4ccccc4)nc3)C2=O)cc1	13µM*
CC(=O)NBr	-7%
c1ccc2c(c1)c1cccc3ccc4cccc2c4c31	?
O=C1NC(=S)NC(=O)C1=Cc1cccc2cc3ccccc3cc12	-16%
COc1ccc(C2(C#N)CC[N+](C)(C)CC2)cc1	-16%
NC(Cc1cc(O)c(O)cc1O)C(=O)O (stereo not given)	4.5µM*
CCCNC(=O)c1c(N)n(CC2CCCO2)c2nc3ccccc3nc12 (stereo not given)	?
O=c1[nH]c2c(c(=O)n1C1CCCCC1)CCC2	-1%
CCOc1ccc(CN(CCCl)CCCl)cc1C(=O)OC	-9%
CCOc1cc2[nH]c(=S)n(CCCC(=O)N3CCC4(CC3)OCCO4)c(=O)c2cc1OCC	-21%
C[C@]12CC[C@H](O)CC1=CCC1C2CC[C@]2(C)C(=O)CC[C@@H]12 (stereo not given in full)	-11%&1%&5%
C[C@H]1CC[C@@H]2[C@@H](C)[C@H]3[C@H](C[C@H]4[C@@H]5CC=C6CC(O[C@@H]7O[C@H](CO)[C@H](O)[C@H](O[C@@H]8O[C@H](CO)[C@@H](O)[C@H](O)[C@H]8O)[C@H]7O[C@H]7O[C@@H](C)[C@H](O)[C@@H](O)[C@H]7O)CC[C@]6(C)[C@H]5CC[C@]34C)N2C1 (stereo not given in full)	-4%
CCCc1cc2c(n1CCO)C(C)C1CN(C(=O)c3ccccc3)C(C)(C(=O)OC)C21 (stereo not given)	-13%
CC(N)C(O)c1ccc(O)c(O)c1 (stereo not given)	3%&-6%
Nc1ccccc1O.O.O=C(O)[C@H]1[O][Sb][O][C@H]1C(=O)O	-6%
N[C@H](Cc1ccccc1)c1nn[nH]n1	0%
CC(C)(C)NCC(O)c1cc(Cl)c(N)c(Cl)c1 (stereo not given)	-7%&-2%
COc1ccc(CCN(C)Cc2ccc(F)cc2F)cc1OC	-8%
CC(=O)Nc1ccccc1C(=O)OCC(=O)c1ccc2ccccc2c1	?
CC(=O)OC1CC(OC(C)=O)[C@]2(C)C(CC(OC(C)=O)[C@]3(C)C2CC[C@@]2(C)C(c4ccoc4)C(=O)C4O[C@]432)C1(C)C (stereo not given in full)	-3%
CN[C@@H](C)[C@H]1CC[C@@H](N)[C@@H](O[C@@H]2[C@@H](O)[C@@H](O[C@H]3OC[C@@](C)(O)[C@@H](NC)[C@@H]3O)[C@H](N)C[C@@H]2N)O1 (tested in a mixture with another compound)	-2%
CCN1CCN(Cc2ccc(C)cc2)CC1	-7%
CN(C)C(=O)Oc1ccc(-c2nnco2)cc1	-13%
CN1CC[C@@]2(CCCN(C(=O)c3csnn3)C2)C1	2%
Cc1ccc(Cc2c(C)nc3nc(SCC(=O)N4CCC5(CC4)OCCO5)nn3c2C)cc1	-17%
CN(C)C(=O)Cl	-8%
CCCc1nc2ccccc2c(=O)n1-c1ccccc1OC	-2%
O=C1NC(=O)C(Cc2cccs2)C(=O)N1	-9%
CC1=C2[C@H]3OC(=O)[C@@H](C)[C@@H]3CC[C@@]2(C)C=CC1=O	-9%
CC(C)N(CC(O)c1cccc([N+](=O)[O-])c1)C(C)C (stereo not given)	?
CCS(=O)(=O)N1CCCC(C(=O)N2CCC3(CC2)OCCO3)C1 (stereo not given)	-4%
Cc1ccc2c(c1N)C(=O)c1ccccc1C2=O	-8%
CCOC(=O)c1c(/N=C/c2c(O)n(-c3ccc(F)cc3)c(=S)[nH]c2=O)sc2c1CCCC2	0%
CN(N=O)c1cc(O)ccc1O	14µM*
C=CCN(CC=C)Cc1c[nH]c2ccccc12	-15%
O=c1[nH]c(=O)n(CCc2ccc(F)cc2)c(O)c1C=NCc1ccc2c(c1)OCO2	?
Cc1cc(OCC(=O)O)c2c3c(c(=O)oc2c1)CCCC3	?
C=CCN1C(=O)/C(=C/c2ccc(N3CCOCC3)o2)C(=O)NC1=S	28µM*
O=NN1CCCCC1	-10%

2 of the compounds above, field by field.
> CN1CC[C@@]2(CCCN(C(=O)c3csnn3)C2)C1
  HPGD inh = 2%
> Cc1ccc(Cc2c(C)nc3nc(SCC(=O)N4CCC5(CC4)OCCO5)nn3c2C)cc1
  HPGD inh = -17%

Continuation.
mol	HPGD inh
O=c1c(C=NCCN2CCNCC2)c(O)n(C2CCCCC2)c(=O)n1C1CCCCC1	3%
CC(C)c1cc2c(c(O)c1O)[C@]1(C(=O)O)CCCC(C)(C)C1CC2 (stereo not given in full)	3.2µM*
O=C(c1ccccc1F)c1cn(CC(=O)N2CCOCC2)c2ccccc12	-12%
CCOC(=O)C(O)(c1ccc(NC(=O)Oc2ccccc2)cc1)C(F)(F)F (stereo not given)	-10%
CC1=CCCC2C1(C)CCC(C)C2(C)CC/C(C)=C/C[n+]1cn(C)c2c(N)ncnc21 (stereo not given)	-7%
O=C(Oc1ccccc1)N1CCC2(CCCN(C(c3ccccc3)c3ccccc3)C2)CC1	1%
N#CC(C#N)=Cc1cc(O)c(O)c([N+](=O)[O-])c1	22µM*
NC(Cn1ccc(=O)[nH]c1=O)C(=O)O (stereo not given)	-5%
Cc1c2ccncc2c(C)c2c1[nH]c1ccccc12	-16%
O=[N+]([O-])CCO	-11%
O=C(C1CCC(=O)N1Cc1ccccc1Cl)N1CCC2(CC1)OCCO2 (stereo not given)	-4%
CN1CCN(C(=O)COc2ccc(C(C)(C)C)cc2Br)CC1	-16%
O=c1c2ccccc2[nH]c(=S)n1-c1ccc2c(c1)OCO2	-4%
Cc1c(/C=N/O)c2ccccc2n1C	-28%

These rows are one share of the data. The share of hits here may be higher or lower than overall.
